miR-21 reporter: miR-21 reporter, rising signal | 340,000 tested, under 10 active | HeLa miR-21 FLuc reporter, luciferase, 48 h | AID 2288 | Potency, µM (highest dose often 38.3 µM), for inactives: top-dose reporter change, positive = more light; active = well fitted rising curve with a large enough effect; inconclusive = small, poorly fitted or top-dose-only effect; inactive = no such curve, though single readings can be large or run the other way;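 further: % of control where 0% means no effect; miR-21 action dims this reporter so a rising signal means less miR-21 action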
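HeLa miR-21-FLuc reporter line, endogenous miR-21; 2000 cells/well in DMEM/10% FBS; compound titration up to ~40uM final, 48 h, 37 degree Celsius; luciferase detection reagent, 15 min lysis, CCD luminescence.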
An asterisk follows results filed as active; u = inconclusive. Not all compounds are listed. The share of hits here may be higher or lower than overall.

miR-21 reporter,Molecule
-16%,O=c1oc2ccccc2cc1-c1cn2cc(Cc3ccc(Br)cc3)sc2n1
1%,COC(=O)CN1C(=O)CSc2ccc(S(=O)(=O)N3CCOCC3)cc21
-6%,CCN(c1ccc(C)cc1C)S(=O)(=O)c1nnc(NC(=O)c2ccccc2OC)s1
1%,COc1ccc(NC(=O)Cn2c(=O)n(CCc3ccccc3)c(=O)c3c4c(sc32)CCCC4)cc1
0%,Cc1ccc(CNC(=O)Cn2c(=O)n(Cc3ccccc3)c(=O)c3sc4ccccc4c32)cc1
5%,CCc1nc2ccc(C(=O)NCc3ccc(N(C)C)cc3)cc2nc1CC
19%,Cc1ccc2c(c1)c(=O)c1ccccc1n2CCCC(=O)Nc1ccc(C)c(C)c1
-1%,COC(=O)c1cc2sc(Cl)cc2n1CC(=O)Nc1cc(OC)cc(OC)c1
-1%,COC(=O)CSc1ncc2c(n1)-c1ccccc1N(Cc1ccc(Cl)cc1)S2(=O)=O
u,Cc1ccc(S(=O)(=O)c2c(O)cc(C)c(NS(=O)(=O)c3ccc(Br)cc3)c2C)cc1
-2%,COc1ccc(NC(=O)CN(c2cccc(C)c2C)S(=O)(=O)c2ccccc2)cc1OC
-1%,CCN(Cc1ccccc1)C(=O)CN1C(=O)CSc2ccc(S(=O)(=O)N(CC)CC)cc21
-2%,CCCN(C(=O)c1cc(S(=O)(=O)N2CCc3ccccc32)cn1C)c1ccc(OCC)cc1
-65%,CN(C)c1ccc(/C=C(\C#N)c2nc3ccccc3c(=O)[nH]2)cc1
8%,CCc1cccc(NC(=O)CCS(=O)(=O)c2cc(Br)cc3c2N(C(C)=O)CC3)c1
-9%,COc1cc(/C=C(\C#N)c2nc3ccccc3n2C)cc(OC)c1OC

As a working copy, 2 of the compounds above:
miR-21 reporter,Molecule
-16%,O=c1oc2ccccc2cc1-c1cn2cc(Cc3ccc(Br)cc3)sc2n1
1%,COC(=O)CN1C(=O)CSc2ccc(S(=O)(=O)N3CCOCC3)cc21

Following part
miR-21 reporter,Molecule
-25%,Cc1cc(C)c(S(=O)(=O)Nc2ccc(-c3ccc(N4CCC(C)CC4)nn3)cc2)cc1C
-3%,Cc1ccc2nc(Nc3cccc(Cl)c3C)c(-n3nc(C)cc3C)nc2c1
1%,CC(C)COC(=O)Cn1nnc2sc(-c3ccccc3)cc2c1=O
1%,O=C(CN(c1ccc(Cl)c(C(F)(F)F)c1)S(=O)(=O)c1ccccc1)N1CCc2ccccc2C1
-1%,CCc1ccc(NC(=O)Cn2cc(S(=O)(=O)c3ccc(F)cc3)c(=O)c3cc(OC)ccc32)cc1
5%,Cc1c(C(=O)N2CCC(C)CC2)c(S(=O)(=O)Nc2cccc(C(F)(F)F)c2)c(C)n1C
2%,CC(C)Oc1ccc(C(=O)N2CCN(CCc3ccccn3)CC2)cc1
-7%,CC(C)(C)OC(=O)N1CCC(c2c(C(=O)N3CCN(C(=O)c4ccco4)CC3)cnn2-c2ccccc2Cl)CC1
5%,CCN(CC)S(=O)(=O)c1ccc2c(c1)N(CC(=O)N1CCN(c3cccc(Cl)c3)CC1)C(=O)CO2
9%,CCC(C(=O)Nc1cccc(Cl)c1C)n1nc(-c2ccc(C)cc2)ccc1=O (stereo not drawn)
2%,O=S(=O)(NCC(c1ccco1)N1CCOCC1)c1ccc(Br)cc1 (stereo not drawn)
1%,Cc1ccc(C)c(NC(=O)Cn2c(=O)n(Cc3ccc4c(c3)OCO4)c(=O)c3ccc(C(=O)NC4CCCCC4)cc32)c1
12µM*,COc1ccc(OC)c(NC(=O)c2nc(S(=O)(=O)Cc3ccc(F)cc3)ncc2Cl)c1
12%,CCOC(=O)Cc1ccc(NC(=O)n2ncc3c(C)cccc32)cc1
-2%,Cc1cc(C)n(CCc2nc3c4ccccc4nc(SCc4ccc(Cl)cc4)n3n2)n1
3%,COc1ccc(NC(=O)c2cnc(Nc3ccc(C)c(Cl)c3)c3ccccc23)cc1OC

In the list so far, these contain a thiophene ring, fused or not.
miR-21 reporter,Molecule
1%,COc1ccc(NC(=O)Cn2c(=O)n(CCc3ccccc3)c(=O)c3c4c(sc32)CCCC4)cc1
0%,Cc1ccc(CNC(=O)Cn2c(=O)n(Cc3ccccc3)c(=O)c3sc4ccccc4c32)cc1
-1%,COC(=O)c1cc2sc(Cl)cc2n1CC(=O)Nc1cc(OC)cc(OC)c1
1%,CC(C)COC(=O)Cn1nnc2sc(-c3ccccc3)cc2c1=O

Next part
miR-21 reporter,Molecule
23%,Cc1noc(Cn2c(=O)c3ccccc3n(CC(=O)Nc3ccc(C(C)C)cc3)c2=O)n1
-14%,COc1ccc(/C=C/C(=O)Nc2nc(-c3cccs3)ns2)cc1
13%,Cc1ccc(NC(=O)c2cc(S(=O)(=O)N3CCc4ccccc43)ccc2F)cc1Cl
-40%,CC(C)(C)c1ccc(-c2nnc(-c3ccccc3NC(=O)c3ccc(F)cc3F)o2)cc1
3%,C=Cc1ccc(Cn2c(C(=O)O)c(CNC3CCCCC3)c3ccc(C)cc32)cc1
-3%,CC(C)NC(=O)CN1C(=O)c2cccnc2Sc2ccccc21
0%,O=C(COc1ccccc1Cl)Nc1ccc2nc(SCC(=O)N3CCOCC3)sc2c1
-11%,CCOC(=O)c1ccc(NC(=O)c2ncn(-c3ccccc3)n2)cc1
-15%,CC1(C)CC(=O)c2cc(C#N)c(=O)n(-c3ccc(Cl)cc3)c2C1
2%,CCC(=O)Nc1ccccc1-c1nc2ccccc2n(CC(=O)c2ccc(C)cc2)c1=O
-4%,O=C(C1COc2ccccc2O1)N(Cc1cccnc1)c1nc2c(Cl)cccc2s1 (stereo not drawn)
-1%,Cc1c(Cl)cccc1NC(=O)c1cnc2sc(N3CCOCC3)nn2c1=O
8%,COc1ccc(CNC(=O)CN(c2ccccc2OC)S(=O)(=O)c2ccc(C)cc2)cc1
-19%,CCC(C)NC(=O)c1nn(-c2ccc(C)cc2)nc1CO (stereo not drawn)
u,CSc1ccc(CCNC(=O)CCCn2c(=O)c3cccn3c3ccccc32)cc1
-11%,COc1ccc(OC)c(S(=O)(=O)N2CCC(n3c(C)nc4cccnc43)CC2)c1
-4%,CCCn1c2ccccc2c2cnn(CC(=O)NCc3ccccc3Cl)c(=O)c21
-41%,CCN(CC)c1nc(-c2ccc(C(C)(C)C)cc2)nc2ccccc12
-12%,O=C(COc1ccc([N+](=O)[O-])cc1)Nc1nc2c(s1)CCCC2
-1%,COc1cc(OC)c(Nc2nc3ccc(C(=O)c4ccccc4)cc3n3c(C)nnc23)cc1Cl
7%,COc1ccc(CNC(=O)C(=O)NCC(c2ccc3c(c2)OCO3)N2CCOCC2)cc1 (stereo not drawn)
-2%,COc1ccc(N(C)C(=O)c2nn(-c3ccc(C)cc3)c(=O)n(C)c2=O)c(OC)c1
-1%,COc1ccc(C2CC(=O)Nc3c2c(=O)nc2c(C)cccn32)cc1OC (stereo not drawn)
3%,CC1CCN(C(c2ccccc2)c2sc3nc(-c4ccco4)nn3c2O)CC1 (stereo not drawn)

Six compounds already listed, sorted by the number in miR-21 reporter, largest number first:
miR-21 reporter,Molecule
9%,CCC(C(=O)Nc1cccc(Cl)c1C)n1nc(-c2ccc(C)cc2)ccc1=O (stereo not drawn)
5%,CCc1nc2ccc(C(=O)NCc3ccc(N(C)C)cc3)cc2nc1CC
1%,O=C(CN(c1ccc(Cl)c(C(F)(F)F)c1)S(=O)(=O)c1ccccc1)N1CCc2ccccc2C1
0%,O=C(COc1ccccc1Cl)Nc1ccc2nc(SCC(=O)N3CCOCC3)sc2c1
-1%,COC(=O)c1cc2sc(Cl)cc2n1CC(=O)Nc1cc(OC)cc(OC)c1
-3%,CC(C)NC(=O)CN1C(=O)c2cccnc2Sc2ccccc21

Remaining list, next part.
miR-21 reporter,Molecule
-5%,COc1cc(OC)c(NS(=O)(=O)c2c(C(=O)N3CCC(C)CC3)c(C)n(C)c2C)cc1Cl
2%,Cc1ccc(NC2=C(c3ccc(C(F)(F)F)cc3)C(=O)c3ccccc32)cc1F
18%,COc1ccc(OC)c(C2CC(=O)c3c([nH]c(C(=O)OCc4ccc(C)cc4)c3C)C2)c1 (stereo not drawn)
-2%,COC(=O)C(CCSC)NC(=O)c1cc2c(n(-c3ccc(C)cc3)c1=O)CC(C)(C)CC2=O (stereo not drawn)
-7%,CNC(=O)c1cc2c(n(-c3ccc(C)cc3)c1=O)CC(C)(C)CC2=O
-1%,CC(=O)Nc1cccc(C(=O)NCc2ccc3c(c2)CCN3C(=O)c2ccccc2)c1
-1%,CCS(=O)(=O)N1CCc2cc(C(=O)Nc3cc(Cl)ccc3C)ccc21
17%,COc1ccc2cc(C(=O)NCc3ccc4c(c3)CCN4C(=O)c3ccccc3)[nH]c2c1
-2%,O=C(CSc1nnc2[nH]c(=O)cc(-c3ccccc3)n12)Nc1ccc(F)cc1F
-9%,Cc1ccc(Cn2c(CN3CCC(C(=O)O)CC3)cc3ccccc32)cc1
2%,CCOc1ccc(NC(=O)CCc2nc3cccnc3n2Cc2ccc(OC)cc2)cc1
6%,CC(=O)c1ccc(NC(=O)CCc2nc(-c3ccc(C)cc3)no2)cc1
-7%,COc1ccc(OC)c(/C=C/c2ccc3cccc(O)c3n2)c1
-1%,CCOC(=O)c1c(C)[nH]c(CCC(=O)Nc2ccc(N(CC)CC)cc2C)c1C
2%,Cc1nc2c(C(=O)NCCc3ccc(Cl)cc3)c[nH]n2c(=O)c1Cc1ccccc1F
-28%,Cn1c(=O)c2sccc2n2c(CCCC(=O)NC3CCCCC3)nnc12
18%,CCOC(=O)c1c(C)[nH]c(C)c1S(=O)(=O)N1CCN(c2cccc(C(F)(F)F)c2)CC1
10%,COc1ccccc1CNC(=O)c1ccc(-c2nc(CS(=O)c3ccccc3)c(C)o2)cc1 (stereo not drawn)
-1%,Cc1c(Cl)cccc1NC(=O)C(C)n1c(=O)cc(C)c2c(C)nn(-c3ccccc3)c21 (stereo not drawn)
5%,CCCCSc1nnc2n(-c3ccc(OC)cc3)c(=O)c3c4c(sc3n12)COC(C(C)C)C4 (stereo not drawn)
-4%,Cc1nc2c(-c3ccccc3)c(C)nn2c(C)c1CCC(=O)NCc1ccccc1Cl
-1%,O=C(CN1CCN(Cc2ccccc2Cl)C1=O)NCCc1ccc(Cl)cc1
-4%,COCCCNC(=O)CCc1c(C)nc2nc(-c3cc(OC)cc(OC)c3)nn2c1C
-9%,CCC(Sc1ncnc2sc3c(c12)CCCC3)C(=O)OCC(C)C (stereo not drawn)
-26%,Cc1ccc2c(c1)CC(C)N2S(=O)(=O)c1nnc(NC(=O)C(C)C)s1 (stereo not drawn)
-1%,Cc1cc(C)nc(-n2nc(C)c3c2N(Cc2ccccc2C)C(=O)CC3c2ccc(Cl)cc2)n1 (stereo not drawn)
-5%,COC(=O)c1ccccc1NC(=O)c1ccc(-c2nc(CSc3ccc(C)cc3)c(C)o2)cc1
-1%,Cc1c(O)nc(SCC(=O)Nc2ccc(Cl)cc2Cl)n(-c2ccc(F)cc2)c1=O
-13%,COc1ccc(NC(=O)CCc2nc3cccnc3n2-c2ccccc2)cc1Cl
-28%,Cn1c(=O)n(C)c2cc(N3CCOCC3)c(NC(=O)c3c(F)cccc3F)cc21
-30%,O=C(NCCC1=CCCCC1)c1ccc2c(c1)ncn2-c1cccc(Cl)c1
1%,CCCCn1c(-c2ccc(C)cc2)c(C)n2c3c(=O)n(C)c(=O)n(C)c3nc12
-12%,CCN1CCc2c(sc(-n3cccc3)c2C(C)NC(=O)Nc2ccc(Br)cc2)C1 (stereo not drawn)
0%,Clc1ccc(C(c2ccccc2)c2c[nH]c3ccccc23)s1 (stereo not drawn)
0%,COc1ccc(CC(=O)NCC(c2ccc(N(C)C)cc2)N2CCOCC2)cc1OC (stereo not drawn)
-6%,Cc1ccc(NC(=O)Cn2c(=O)cc(-c3ccccc3)c3c(C)nn(C)c32)c(Cl)c1
0%,CC(=O)NCCNC(=O)CCCc1nnc2n(CCC(C)C)c(=O)c3sccc3n12
-10%,Cc1cccc(NC(=O)C(=O)NCC(c2cccnc2)N2CCN(Cc3ccccc3)CC2)c1 (stereo not drawn)
0%,CCC(NC(=O)Nc1ccc(OC)c(OC)c1)c1c(-n2cccc2)sc2c1CCN(C)C2 (stereo not drawn)
30%,CC(C)c1ccc(NS(=O)(=O)c2ccc3nc(-c4ccccc4)[nH]c3c2)cc1
-3%,COc1ccccc1CNC(=O)C(=O)NCC(c1cccnc1)N1CCN(c2ccccc2)CC1 (stereo not drawn)
7%,Cc1cc(Br)ccc1NC(=O)Cn1cc(S(=O)(=O)N2CCN(c3ccccc3F)CC2)c2ccccc2c1=O
3%,COc1cccc(C(=O)Nc2ccc(-n3nncc3-c3ccccc3)cc2)c1OC
-9%,Cc1ccc2nc(NC(=O)CSc3nccn3Cc3ccccc3)sc2c1
-1%,Cc1ccc(NC(=O)Cc2ccc(NC(=O)N3CCCCc4ccccc43)cc2)cc1Cl
-1%,CCc1cc(=O)[nH]c(SCc2nc(-c3ccccc3C)no2)n1
u,CCc1cccc(NC(=O)C2CCCN2S(=O)(=O)c2ccc3nc(-c4ccccc4)[nH]c3c2)c1 (stereo not drawn)
u,COc1ccccc1-c1cc(C(F)(F)F)nc(S(=O)(=O)CCCC(=O)Nc2cc(OC)c(OC)c(OC)c2)n1
0%,Cc1nn(-c2ccc(N3CCCC3)nn2)c(C)c1CCC(=O)NCc1ccc(OC(C)C)cc1
0%,CCN1CCN(Cc2c(O)ccc3oc(C)c(C(=O)Nc4ccc(OC)cc4)c23)CC1
4%,CC(=O)c1cccc(NC(=O)CSc2nc3c(=O)n(C)c(=O)n(C)c3n2C)c1
1%,O=C(O)c1cccc(NC(=O)c2cc3cc(Br)cc(Br)c3oc2=O)c1
-25%,COc1cccc(CNC(=O)c2cc(-c3cccc(OC)c3)n[nH]2)c1
-8%,CN(Cc1ccccc1)C(=O)Cn1c(=O)c2cccn2c2ccc(F)cc21

Source: PubChem BioAssay
